Bioassay records as filed in PubChem.
Yeast UUG start: modulators of start codon recognition fidelity in yeast; S. cerevisiae UUG-firefly luciferase reporter, luminescence/redox ratio; activity score, % at 18.7 µM; 350,000 tested, 0.13% active;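 active means replicate mean at a twofold rise or more, about +100% in these data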;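 further: firefly luciferase made from a UUG start codon reports start codon fidelity; reporter light over untreated wells divided by growth signal over untreated wells; some hits fall short of that in this replicate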
Rce1 inh: blocks yeast Ras-converting enzyme; yeast membranes, quenched prenylated peptide cleavage fluorescence; calls only; 290,000 tested, 0.27% active;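 active means fall in fluorescence gain of 50% or more versus controls, with final raw signal at or below 3038400; inconclusive means same 50% fall but final raw signal above 3038400; inactive means fall in fluorescence gain under 50%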;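 further: plate controls were neutral control wells for no effect and wells lacking membranes for full effect; tested at 10 µM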
PABP polyA inh: PABP-poly(A) binding inhibition; P11940; PABP-poly(A) RNA binding, fluorescence polarization; inhibition, % at 35 µM; 290,000 tested, 1% active; AID 2014;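 active means 50% or more with normal probe brightness, or confirmed in later tests; inconclusive means above 50% with abnormal brightness, or retests that disagree; inactive means below 50% or failed in later tests; about a fifth of its hits are not listed in these tables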;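 further: calls also rest on retests at 20 µM and on dose response follow-up; controls were probe without protein and protein plus probe with vehicle; some compounds called inactive have numbers as strong as hits; many hits fall short of the cut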
Target sequence (P11940 whole entry, looked up): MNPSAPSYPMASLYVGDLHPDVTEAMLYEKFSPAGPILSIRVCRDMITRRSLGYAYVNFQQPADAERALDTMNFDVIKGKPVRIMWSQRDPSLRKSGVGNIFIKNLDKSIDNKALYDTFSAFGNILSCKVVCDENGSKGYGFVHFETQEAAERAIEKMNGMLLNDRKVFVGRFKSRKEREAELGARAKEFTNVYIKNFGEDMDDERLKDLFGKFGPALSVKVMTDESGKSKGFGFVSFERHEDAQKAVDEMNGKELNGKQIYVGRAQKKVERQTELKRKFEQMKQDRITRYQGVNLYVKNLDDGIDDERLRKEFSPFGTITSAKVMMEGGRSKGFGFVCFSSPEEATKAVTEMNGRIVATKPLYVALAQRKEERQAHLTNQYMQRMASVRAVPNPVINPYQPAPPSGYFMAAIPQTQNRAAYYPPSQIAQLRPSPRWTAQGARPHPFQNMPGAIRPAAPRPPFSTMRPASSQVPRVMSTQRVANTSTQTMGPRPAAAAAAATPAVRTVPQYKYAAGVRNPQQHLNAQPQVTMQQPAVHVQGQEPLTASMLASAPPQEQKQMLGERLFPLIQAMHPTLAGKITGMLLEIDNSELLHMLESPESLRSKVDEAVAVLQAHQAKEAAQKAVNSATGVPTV
eIF4H FP inh: inhibitors of RNA binding by human eIF4H | 290,000 tested, 0.94% active | inhibition, % at 35 µM | eIF4H fluorescence polarization binding assay | AID 2012 | Q15056;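 active means 50% or more with normal probe brightness, or confirmed in later tests; inconclusive means above 50% with abnormal brightness, or retests that disagree; inactive means below 50% or failed in later tests; about a fifth of its hits are not listed in these tables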;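 further: calls also rest on retests at 20 µM and on dose response follow-up; 0% = protein and probe with vehicle and 100% = probe without protein; strong numbers were not always called active; many hits fall short of the cut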
MT1-MMP act inh: MT1-MMP (human) activation inhibition; 360,000 tested, 0.061% active; HT1080 RFP-PRO-GFP cells, GFP/RFP ratio fluorescence, overnight; percent of plate control window, DMSO zero; P50281; GFP/RFP ratio change, % at 20 µM;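 active means GFP/RFP ratio change of at least 30% with cell ATP level not reduced by more than half and red fluorescence within 50% of control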; further: strong numbers were not always called active
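system = RFP-PRO-GFP reporter HT1080 cells | dosing = 20 µM single dose, 1% DMSO | timing = overnight cell settling, then overnight compound exposure, 37 °C, 5% CO2 | read-out basis = GFP/RFP fluorescence ratio | controls = DMSO and RFP-L50D-GFP cell wells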
Env fusion inh: HIV envelope-mediated fusion inhibition | HeLa-JRFL Env/CEM21 cell fusion, luciferase | inhibition, % at 12.3 µM | 360,000 tested, 1.1% active | AID 651610;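 active means mean replicate inhibition score of at least 50 and every replicate individually at or above 50; inconclusive means only one of the two criteria met; inactive means mean below 50 and not all replicates reaching 50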;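 further: 0% = plate neutral controls and 100% = maraviroc near 300 nM; one replicate is shown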
CSC inhib: blocks cancer stem cells. inhibition, % at 7.5 µM. cancer stem cell-like cells viability, luminescence. 300,000 tested, 1.1% active;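 active means mean at 75% or more and at least half the replicates too; inconclusive means mean and replicates disagree; tested in HMLE shEcad cells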;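 further: 0% = median of negative and 100% = median of positive control wells; the first replicate is given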
MT1-MMP act inh RFP: recorded beside MT1-MMP act inh, whose call it bears; RFP signal change, %; measured here: RFP expression control read;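 0 = vehicle wells; hits needed this value within 50% of zero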
Active calls of the source: *.

Start of the listing, in advance, two compounds:
What do the screens show for `CC(C)(C(=O)c1ccccc1)/[N+]([O-])=C/c1ccccc1F`?
Yeast UUG start: -13; Rce1 inh: inactive; MT1-MMP act inh: 8; Env fusion inh: -38; CSC inhib: 5; MT1-MMP act inh RFP: 4

Results for COc1ccc(CCNC(=O)c2ccncc2)cc1OC ?
Yeast UUG start: 1; Rce1 inh: inactive; PABP polyA inh: -5; eIF4H FP inh: 15; MT1-MMP act inh: 1; MT1-MMP act inh RFP: 6

Results, previewed entries included:
What do the screens show for `CC(C)(C(=O)c1ccccc1)/[N+]([O-])=C/c1ccccc1F`?
Yeast UUG start: -13; Rce1 inh: inactive; MT1-MMP act inh: 8; Env fusion inh: -38; CSC inhib: 5; MT1-MMP act inh RFP: 4

Results for COc1ccc(CCNC(=O)c2ccncc2)cc1OC ?
Yeast UUG start: 1; Rce1 inh: inactive; PABP polyA inh: -5; eIF4H FP inh: 15; MT1-MMP act inh: 1; MT1-MMP act inh RFP: 6

Results for O=C(NC(=O)c1cccc(Cl)c1)OC[C@@H]1CCCN2CCCCC12 (stereo partly specified) ?
Yeast UUG start: -4; Rce1 inh: inactive; PABP polyA inh: 1; eIF4H FP inh: 2; MT1-MMP act inh: -1; Env fusion inh: -1; CSC inhib: -3; MT1-MMP act inh RFP: 8

How did CCc1nnc(NC(=O)C2COc3ccccc3O2)s1 (stereo unspecified) do in these assays?
Rce1 inh: inactive; PABP polyA inh: 7; eIF4H FP inh: -14; MT1-MMP act inh: 2; CSC inhib: -11; MT1-MMP act inh RFP: 3

Results for Cc1noc(C)c1COC(=O)COc1ccc(C#N)cc1 ?
Rce1 inh: inactive; PABP polyA inh: 1; eIF4H FP inh: -3; MT1-MMP act inh: -1; Env fusion inh: 11; CSC inhib: -1; MT1-MMP act inh RFP: 2

Results for Cc1ccc2c(c1)C(=C(C#N)C#N)C(=O)N2CCN1CCOCC1 ?
Rce1 inh: inactive; PABP polyA inh: -1; eIF4H FP inh: 12; MT1-MMP act inh: 1; Env fusion inh: 8; CSC inhib: -4; MT1-MMP act inh RFP: 5

What do the screens show for `CN1c2ccccc2N(C)C1(C)c1cccc2ccccc12`?
Rce1 inh: inactive; PABP polyA inh: 9; eIF4H FP inh: inconclusive; MT1-MMP act inh: 5; Env fusion inh: 14; CSC inhib: 4; MT1-MMP act inh RFP: 20

How did Cn1c(=O)c([N+](=O)[O-])c(NCc2ccccc2Cl)c2ccccc21 do in these assays?
Rce1 inh: inactive; PABP polyA inh: 4; eIF4H FP inh: -6; MT1-MMP act inh: 3; Env fusion inh: 9; CSC inhib: 35; MT1-MMP act inh RFP: -8

What do the screens show for `O=C(Nc1ccc(S(=O)(=O)C(F)F)cc1)c1cccc(S(=O)(=O)N2CCOCC2)c1`?
Yeast UUG start: -5; Rce1 inh: inactive; PABP polyA inh: -2; eIF4H FP inh: -12; MT1-MMP act inh: 2; CSC inhib: -10; MT1-MMP act inh RFP: -12

What do the screens show for `COc1ccc(Cn2c(SCc3ccccc3C)nc3cc(OC)c(OC)cc3c2=N)cc1`?
Yeast UUG start: -8; Rce1 inh: inactive; PABP polyA inh: -9; eIF4H FP inh: -9; MT1-MMP act inh: -38; Env fusion inh: -24; CSC inhib: 100*; MT1-MMP act inh RFP: -30

What do the screens show for `FC(F)(F)c1cccc(-c2nnc(-c3ccccc3)c(N3CCOCC3)n2)c1`?
Yeast UUG start: -3; Rce1 inh: inactive; PABP polyA inh: -16; eIF4H FP inh: -6; MT1-MMP act inh: 5; Env fusion inh: 39; CSC inhib: 14; MT1-MMP act inh RFP: -4

Results for CN(C)c1ccc(C(=O)Nc2ccc(CN3CCS(=O)(=O)CC3)cc2)cc1 ?
Rce1 inh: inactive; PABP polyA inh: -12; eIF4H FP inh: 5; MT1-MMP act inh: -1; Env fusion inh: 1; CSC inhib: -6; MT1-MMP act inh RFP: 2

How did Cc1ccccc1OCCCn1c(CO)nc2ccccc21 do in these assays?
Rce1 inh: inactive; PABP polyA inh: -4; eIF4H FP inh: -8; MT1-MMP act inh: 0; Env fusion inh: 11; CSC inhib: 2; MT1-MMP act inh RFP: -8

Results for C[C@H](CO)N1C[C@H](C)[C@@H](CN(C)CC2CC2)Oc2c(NC(=O)Cc3ccccc3)cccc2C1=O ?
Yeast UUG start: -17; MT1-MMP act inh: -7; Env fusion inh: -9; CSC inhib: -4; MT1-MMP act inh RFP: 3

What do the screens show for `CN(C)C(=O)c1cccc(-c2cnc3c(NC=O)cc(-c4cc(F)c(F)c(F)c4)cn23)c1`?
Yeast UUG start: -15; MT1-MMP act inh: -2; Env fusion inh: 9; MT1-MMP act inh RFP: -5

What do the screens show for `Cc1cccc(NC(=S)NNC(=O)c2ccccc2OC(F)F)c1`?
Yeast UUG start: -31; Rce1 inh: inactive; PABP polyA inh: -4; eIF4H FP inh: 8; MT1-MMP act inh: 4; Env fusion inh: -3; CSC inhib: 1; MT1-MMP act inh RFP: 0

How did Cc1c(C)c2c(OCC(=O)N3CCC(C(=O)NCC(C)C)CC3)cc3c(c2oc1=O)CCC(C)(C)O3 do in these assays?
Yeast UUG start: -14; Rce1 inh: inactive; PABP polyA inh: -7; eIF4H FP inh: 4; MT1-MMP act inh: 1; CSC inhib: -13; MT1-MMP act inh RFP: 1

What do the screens show for `O=C(Nn1c(SCc2ccc([N+](=O)[O-])cc2)nc2ccccc2c1=O)c1ccc(F)cc1`?
Yeast UUG start: -18; Rce1 inh: inactive; PABP polyA inh: -10; eIF4H FP inh: -5; MT1-MMP act inh: -1; Env fusion inh: -7; CSC inhib: 51; MT1-MMP act inh RFP: 5

Results for Cc1ccc(CNC(=O)CCS(=O)(=O)Cc2ccc(C)cc2)cc1 ?
Yeast UUG start: -24; Rce1 inh: inactive; PABP polyA inh: -14; eIF4H FP inh: -6; MT1-MMP act inh: -3; Env fusion inh: -2; CSC inhib: 20; MT1-MMP act inh RFP: 1

What do the screens show for `CCN(c1ccc(C)c(C)c1)S(=O)(=O)c1ccc2c(c1)CCN2C(=O)CCC(=O)O`?
Rce1 inh: inactive; PABP polyA inh: -4; eIF4H FP inh: 3; MT1-MMP act inh: 4; CSC inhib: -8; MT1-MMP act inh RFP: 0

Results for Cc1ccc2[nH]cc(CCNC(=O)Nc3ccccc3)c2c1 ?
Rce1 inh: inactive; PABP polyA inh: -1; eIF4H FP inh: -1; MT1-MMP act inh: 7; Env fusion inh: -52; MT1-MMP act inh RFP: -2

Results for O=C(c1cc2cc(Br)ccc2o1)N1CCCC1 ?
Yeast UUG start: 1; Rce1 inh: inactive; PABP polyA inh: -7; eIF4H FP inh: 3; MT1-MMP act inh: 0; Env fusion inh: -101; CSC inhib: 13; MT1-MMP act inh RFP: 4

What do the screens show for `CCCNC(=O)c1c(O)c2cccc3c2n(c1=O)CCC3`?
Yeast UUG start: -3; Rce1 inh: inactive; PABP polyA inh: -1; eIF4H FP inh: 2; MT1-MMP act inh: 11; Env fusion inh: 20; CSC inhib: 6; MT1-MMP act inh RFP: 6

What do the screens show for `CCCn1c(NC(=O)c2ccccc2)nc2ccccc21`?
Yeast UUG start: -16; Rce1 inh: inactive; PABP polyA inh: -2; eIF4H FP inh: 8; MT1-MMP act inh: 5; CSC inhib: 4; MT1-MMP act inh RFP: -2

What do the screens show for `C=CCN1C(=O)CN=C1NCc1ccccc1`?
Yeast UUG start: -15; Rce1 inh: inactive; PABP polyA inh: 13; eIF4H FP inh: 1; MT1-MMP act inh: 4; Env fusion inh: -4; CSC inhib: -6; MT1-MMP act inh RFP: 3

How did Cc1ccc(Nc2nc3ccccc3o2)cc1F do in these assays?
Yeast UUG start: -11; Rce1 inh: inactive; PABP polyA inh: 6; eIF4H FP inh: -2; MT1-MMP act inh: -2; CSC inhib: -1; MT1-MMP act inh RFP: -1

Results for Cc1cc(OCC(=O)NC(C)(C)C)ccc1Cl ?
Yeast UUG start: 5; Rce1 inh: inactive; PABP polyA inh: 1; eIF4H FP inh: -8; MT1-MMP act inh: -1; Env fusion inh: 16; CSC inhib: -13; MT1-MMP act inh RFP: 0

Results for COc1ccccc1N1CCN(C(=O)c2sc3nc(-c4ccc(F)cc4)cn3c2C)CC1 ?
Yeast UUG start: 4; Rce1 inh: inactive; PABP polyA inh: 7; eIF4H FP inh: -6; MT1-MMP act inh: 0; Env fusion inh: inconclusive; CSC inhib: 9; MT1-MMP act inh RFP: -24

What do the screens show for `CC1CCC(=NNC(=O)Cc2ccccc2)CC1` (stereo unspecified)?
Yeast UUG start: -8; Rce1 inh: inactive; PABP polyA inh: -3; eIF4H FP inh: -5; MT1-MMP act inh: 6; Env fusion inh: -19; CSC inhib: -7; MT1-MMP act inh RFP: 1

Results for O=C(NCc1ccco1)c1cc2sccc2n1Cc1ccc(F)cc1 ?
Rce1 inh: inactive; PABP polyA inh: 0; eIF4H FP inh: 0; MT1-MMP act inh: -3; Env fusion inh: 21; CSC inhib: -6; MT1-MMP act inh RFP: -3

What do the screens show for `COC(C[C@@H]1O[C@@H]1C(=O)COCc1ccccc1)OC`?
Yeast UUG start: -6; Rce1 inh: inactive; PABP polyA inh: -8; eIF4H FP inh: 3; MT1-MMP act inh: -5; Env fusion inh: -24; MT1-MMP act inh RFP: 6

What do the screens show for `O=C(CSc1nnc2ccccn12)c1ccc2c(c1)OCCO2`?
Yeast UUG start: -51; Rce1 inh: inactive; PABP polyA inh: 7; eIF4H FP inh: -6; MT1-MMP act inh: 3; CSC inhib: -6; MT1-MMP act inh RFP: 4

Results for O=C(Oc1ccc(NC(=O)c2cc3c(cc2Br)OCO3)cc1)c1ccccc1 ?
Yeast UUG start: -14; Rce1 inh: inactive; PABP polyA inh: -1; eIF4H FP inh: -1; MT1-MMP act inh: 3; Env fusion inh: 6; CSC inhib: 14; MT1-MMP act inh RFP: 4

How did CC(C)C(NS(=O)(=O)c1cccc2nsnc12)C(=O)N1CCn2c1nc1ccccc12 (stereo unspecified) do in these assays?
Yeast UUG start: -9; Rce1 inh: inactive; PABP polyA inh: 1; eIF4H FP inh: 5; MT1-MMP act inh: -4; Env fusion inh: -29; CSC inhib: 1; MT1-MMP act inh RFP: 1

How did Cc1ccc(NC(=O)N2CCC(c3nc4c(nnn4Cc4cccc(Cl)c4)c(=O)[nH]3)CC2)cc1 do in these assays?
Yeast UUG start: 14; Rce1 inh: inactive; PABP polyA inh: 0; eIF4H FP inh: -1; MT1-MMP act inh: 7; Env fusion inh: 13; CSC inhib: 11; MT1-MMP act inh RFP: -3

How did Cc1ccc(C2=CSC3=NNC4(CCCCC4)NN23)cc1 do in these assays?
Yeast UUG start: 14; Rce1 inh: inactive; PABP polyA inh: inconclusive; eIF4H FP inh: -3; MT1-MMP act inh: -1; Env fusion inh: -59; CSC inhib: 11; MT1-MMP act inh RFP: -6

Results for O=C(CC1Sc2ccccc2NC1=O)NNC(=O)Nc1ccc(Cl)cc1 (stereo unspecified) ?
Yeast UUG start: -7; Rce1 inh: inactive; PABP polyA inh: 7; eIF4H FP inh: 0; MT1-MMP act inh: -2; Env fusion inh: 12; CSC inhib: -7; MT1-MMP act inh RFP: -1

How did O=C(COC(=O)c1cccc(O)c1)c1ccccc1 do in these assays?
Rce1 inh: inactive; MT1-MMP act inh: 7; Env fusion inh: -67; CSC inhib: -1; MT1-MMP act inh RFP: 3

What do the screens show for `O=C(NNC(=O)c1ccccc1O)c1cc2ccccc2o1`?
Yeast UUG start: -2; Rce1 inh: inactive; MT1-MMP act inh: 5; Env fusion inh: -24; CSC inhib: -10; MT1-MMP act inh RFP: 4

What do the screens show for `COC(=O)CC1=C(C(=O)OC)C(c2cccc(OCC(N)=O)c2)C(C#N)=C(N)O1` (stereo unspecified)?
Yeast UUG start: -10; Rce1 inh: inactive; PABP polyA inh: 27; eIF4H FP inh: 45; MT1-MMP act inh: -18; Env fusion inh: -20; CSC inhib: -1; MT1-MMP act inh RFP: 1
